Source: PubChem BioAssay (several laboratories)
Bfl-1 A1 inh = inhibitors of the anti-apoptotic protein A1, read as caspase activation. MEF A1-2A-BIM cells, Caspase-Glo 3/7 luminescence, 3 h; percent of clofoctol response, vehicle zero. caspase activation, % (no concentration beside the values). 330,000 compounds, 0.066% hits;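 active = over half of replicate activation scores above 10%, or exactly half above 10 with the replicate mean above 10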;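 also: wells of about 30 µL received 50 nL stock; many hits fall short of the cut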
E coli growth = inhibitors of Escherichia coli growth; OD600 absorbance (no concentration beside the values); 330,000 compounds, 0.21% hits; OD600, 23 h; hits give low values; AID 1053175;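 active = OD600 absorbance below the run mean of sample wells minus 3.6 SD, in any replicate, cut at about 0.56 in these data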;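 also: stock transfer was 300 nL into about 60 µL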
UCH37 inh = blocks the human deubiquitinase UCH37 | Q9Y5K5 | purified proteasome/UCH37, Ub-AMC cleavage fluorescence | inhibition, % (no concentration beside the values) | 330,000 compounds, 0.33% hits | AID 588478;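 active = mean of two replicates above 20%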;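 also: 0% = compound-free wells with enzyme and 100% = wells lacking proteasome; stock transfer was 100 nL into about 20 µL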
Target sequence (Q9Y5K5 whole entry, looked up): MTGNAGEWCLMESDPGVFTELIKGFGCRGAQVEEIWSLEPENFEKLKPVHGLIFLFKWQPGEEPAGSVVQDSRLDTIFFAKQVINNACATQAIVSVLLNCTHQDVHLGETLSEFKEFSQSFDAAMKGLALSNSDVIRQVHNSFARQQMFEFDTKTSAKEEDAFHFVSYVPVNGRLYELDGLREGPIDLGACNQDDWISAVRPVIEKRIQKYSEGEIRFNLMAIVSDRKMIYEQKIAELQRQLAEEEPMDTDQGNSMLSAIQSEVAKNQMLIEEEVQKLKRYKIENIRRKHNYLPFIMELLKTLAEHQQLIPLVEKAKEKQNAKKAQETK
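Material: Human UCH37 enzyme supplied as purified proteasome complex | Schedule: 30 min preincubation with enzyme, 25 min cleavage at room temperature | Detection: AMC fluorescence 355/460 nm | Measure: % inhibition of Ub-AMC cleavage fluorescence | Controls: Wells without proteasome as full block, compound-free enzyme plus substrate as uninhibited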
Vif A3G = inhibitors of Vif binding to APOBEC3G peptide, primary screen, biochemical, TR-FRET, GST-Vif 1-94, biotin-A3G peptide, dose response retest (AID 1117319) | 260,000 compounds, 0.57% hits | TR-FRET GST-Vif / biotin-A3G peptide binding; higher % means a stronger effect; test concentration not given here; strong numbers were not always called active | inhibition, %, or IC50 in µM where a hit was titrated;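 active = above the screen mean plus three standard deviations and confirmed in dose response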;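 also: Vif residues 1-94 fused to GST binding biotinylated APOBEC3G peptide 110-148; 0% = full assay without inhibitor and 100% = GST in place of GST-Vif; retest series ran down from 100 µM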
LANA-H2B inh = blocks KSHV LANA binding to histone H2A/H2B. cell-free LANA-H2A/H2B peptide, fluorescence polarization. 320,000 compounds, 0.6% hits. inhibition, % (no concentration beside the values). Q9QR71; in the data active = inhibition mostly above about 10%, no sharp cut-off; inactive = mostly below about 6.7%;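 also: stock transfer was 7.5 nL into about 10 µL; 0% = median of vehicle wells and 100% = median of positive control wells; one replicate is shown; the record names a cut of 25% in any replicate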
B2AR ag = agonists of human beta-2 adrenergic receptor inducing internalization | P07550 | Am2.2-beta2AR cells, FAP receptor internalization, flow cytometry; reference of the scale not given here | response, % (concentration not given with the values) | 340,000 compounds, 0.43% hits;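 active = response above a set limit, near 3 SD of response in nonfluorescent compounds, cut at about 42% in these data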;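 also: stock transfer was 100 nL into about 11 µL; a reference agonist was the positive control; negative values mostly stem from fluorescent compounds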
Target sequence (P07550 whole entry, looked up): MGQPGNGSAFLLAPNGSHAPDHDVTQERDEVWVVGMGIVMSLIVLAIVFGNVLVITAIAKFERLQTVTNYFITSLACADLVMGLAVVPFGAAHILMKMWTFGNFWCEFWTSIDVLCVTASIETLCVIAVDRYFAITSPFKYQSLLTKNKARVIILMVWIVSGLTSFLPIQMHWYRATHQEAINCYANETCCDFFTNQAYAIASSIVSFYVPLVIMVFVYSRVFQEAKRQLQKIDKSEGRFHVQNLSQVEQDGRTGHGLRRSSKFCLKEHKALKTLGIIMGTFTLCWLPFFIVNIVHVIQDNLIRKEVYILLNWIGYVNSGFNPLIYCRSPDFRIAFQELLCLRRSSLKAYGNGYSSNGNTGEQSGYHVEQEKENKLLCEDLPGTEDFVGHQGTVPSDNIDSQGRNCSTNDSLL
HNF4A DNA FP = change in binding of human HNF4 alpha to DNA | P41235 | HNF4a-FITC DNA binding, fluorescence polarization, 1 h | activity change, % at 10 µM | 360,000 compounds, 0.3% hits | AID 1224865; in the data active = activity change above about 30%, passing the limit was not always enough;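 also: controls were the assay level and a saturating level of protein; the project sought stronger binding though the title names inhibitors; some compounds called inactive have numbers as strong as hits; positive values seem to mean higher polarization but the record does not say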
An asterisk follows results filed as active; · = no result given; & = joins results of further samples.

Start of the data: the first 2 compounds, to show the layout:
mol,B2AR ag,Vif A3G,E coli growth,Bfl-1 A1 inh,LANA-H2B inh,UCH37 inh,HNF4A DNA FP
O=C(c1cccs1)N1CCN(C2CCN(Cc3ccccc3)CC2)CC1,0,9%,0.71,0.2,2.0,7.4,1.9
Cc1noc(C)c1NC(=O)N(C)C[C@H]1Oc2ccc(NS(=O)(=O)c3cccs3)cc2C(=O)N([C@H](C)CO)C[C@@H]1C,0,·,·,1.0,1.4,5.1,1.1

The listing, from the first entry:
mol,B2AR ag,Vif A3G,E coli growth,Bfl-1 A1 inh,LANA-H2B inh,UCH37 inh,HNF4A DNA FP
O=C(c1cccs1)N1CCN(C2CCN(Cc3ccccc3)CC2)CC1,0,9%,0.71,0.2,2.0,7.4,1.9
Cc1noc(C)c1NC(=O)N(C)C[C@H]1Oc2ccc(NS(=O)(=O)c3cccs3)cc2C(=O)N([C@H](C)CO)C[C@@H]1C,0,·,·,1.0,1.4,5.1,1.1
COc1ccc(NC(=S)N2CCN(Cc3ccccc3)CC2)cc1,-2,28%,0.65,0.1,0.5,1.1,2.4
CCOc1cccc(=O)c2c(C)n(CC(=O)c3ccccc3)c(C)c12,19,8.3µM*,0.71,0.3,0.7,4.8,-2.9
COC(=O)c1nn2c(C(F)(F)F)cc(-c3ccc(Br)o3)nc2c1Br,3,17%,0.68,-0.2,-0.1,2.9,7.2
CCN(C(=O)COC(=O)CCOc1cc(C)ccc1C)c1c(N)n(Cc2ccccc2)c(=O)[nH]c1=O,-5,·,0.7,·,·,-0.7,2.5
Cn1nc(-c2ccc(NCCO)c([N+](=O)[O-])c2)c2ccccc2c1=O,6,26%,0.69,-0.5,-5.4,1.1,1.6
O=[N+]([O-])c1ccc(O)c(/C=N/Nc2ccccc2Cl)c1,5,-9%,·,-0.6,5.2,·,1.7
COc1cccc(NC(=S)N2CCN(S(=O)(=O)c3ccc(F)cc3)CC2)c1,1,·,0.71,0.0,-0.8,4.6,1.2
COCCCNC(=O)C(=O)NC1CCCCC1C (stereo unspecified),6,-8%,0.66,0.8,-3.6,0.4,-3.6
Cc1ccccc1NC(=O)CSCCN1C(=O)c2ccccc2C1=O,3,·,0.72,0.7,2.3,0.6,3.8
COc1ccc(N2CCN(Cc3cc(=O)oc4ccc(C)cc34)CC2)cc1,4,9%,0.72,-0.7,6.9,2.4,-0.1
COc1ccc(C2=Nn3c(nnc3-c3ccccc3OC)SC2)cc1OC1CCCC1,30,·,0.68,-1.1,-1.4,1.3,-4.3
CC1(C)Cc2c(C#N)c(N)n(-c3ccccc3)c(=S)c2CO1,1,-7%,0.67,0.1,4.0,9.1,6.2
O=C(Cc1ccccc1F)Nc1cccc(S(=O)(=O)N2CCOCC2)c1,-2,6%,0.69,0.1,0.8,2.6,3.6
O=C(c1ccccc1)c1nn(-c2ccc(Cl)cc2)c(=O)cc1C(F)(F)F,-4,-3%,0.76,-0.3,2.5,-6.9,0.2
O=C(O)c1ccccc1C(=O)N1N=C2/C(=C/c3cccc([N+](=O)[O-])c3)CCCC2C1c1cccc([N+](=O)[O-])c1 (stereo unspecified),-1,·,0.72,-0.9,6.0,5.3,0.3
O=C(Nc1ccc(F)cc1)C1CCCN1S(=O)(=O)c1ccc(Br)cc1 (stereo unspecified),1,·,0.64,-0.5,0.5,1.5,4.5
COC(=O)CSc1nnc(CNc2ccc(Cl)cc2)n1Cc1ccccc1,15,-2%,0.7,0.3,-1.1,2.0,-4.0
N/C(=N\OC(=O)c1ccccc1Cl)c1cccc([N+](=O)[O-])c1,7,0%,·,-12,-2.5,·,-2.0
CCCN(CCC)C(=O)CSc1nc2ccccc2c(=O)n1C1CCCC1,39,7%,0.73,-1.2,-0.2,5.0,-0.5
N#Cc1cn(Cc2ccncc2)c(=O)[nH]c1=O,1,6%,0.65,0.7,-4.7,1.7,-6.2
O=C(CSCc1ccc(F)cc1)Nc1ccc(N2CCOCC2)cc1N1CCOCC1,12,17%,0.69,0.1,-1.3,5.7,-0.2
N#C/C(=C\c1c(N2CCCCCC2)nc2ccccn2c1=O)C(=O)NC1CCS(=O)(=O)C1 (stereo unspecified),-11,4%,0.71,0.3,·,1.9,-0.5
Cc1ccc(S(=O)(=O)CCC(=O)Nc2nc(C(C)(C)C)cs2)cc1,1,·,0.69,-0.6,-2.5,3.9,0.6
CCN(CC)CCCNc1nc2ccccc2c2[nH]c3ccc(OC)cc3c12,8,-16%,·,·,·,·,-38
Cc1ccc(N2CC(C(=O)Nc3nnc(SCC(=O)NCC4CCCO4)s3)CC2=O)cc1 (stereo unspecified),-4,·,0.69,0.7,1.2,2.7,4.1
CCCn1c(CCC(=O)Nc2ccccc2Cc2ccccc2)nc2cc(S(=O)(=O)N3CCOCC3)ccc21,2,2%&0%,0.73,-0.5,-0.8,1.3,2.9
Cc1cccc(NC(=O)COC(=O)CCc2c[nH]c3ccccc23)c1,-4,-6%,0.7,-1.2,2.0,1.2,3.5
C/C(=N\Nc1ncc(Cl)cc1Cl)c1ccc(S(=O)(=O)NCc2ccco2)cc1,-5,14%,·,-0.3,3.0,·,-0.7
Cc1ccc(-c2csc(NC(=O)N3CCOCC3)n2)cc1,-3,-9%,0.71,0.8,2.9,-1.4,1.0
O=C(CSc1ccc2ccccc2n1)N1CCC(c2noc3ccc(F)cc23)CC1,-19,·,0.74,0.2,-2.4,-1.3,0.0
CN(C)c1ccc(NC(=O)CN2C(=O)c3ccccc3C2=O)cc1,1,·,0.61,0.2,0.0,0.3,-8.0
COc1ccc(N2CCN(c3nc4c(c(=O)n(C)c(=O)n4C)n3Cc3ccccc3)CC2)cc1,-1,28%,·,-1.0,2.2,-0.4,0.5
CCOc1ccccc1C(=O)NN1C(=O)C2CCCCC2C1=O (stereo unspecified),-13,-6%,0.7,-0.5,1.3,2.3,0.0
N#Cc1ccc(NC(=O)Nc2ccc(Oc3ccc(NC(=O)Nc4ccc(C#N)cc4)cc3)cc2)cc1,4,5%,0.54,-0.8,2.3,2.6,1.9
C[C@H](CO)N1C[C@H](C)[C@@H](CN(C)S(=O)(=O)c2ccc(F)cc2)Oc2c(NC(=O)CCC(F)(F)F)cccc2C1=O,-20,·,·,0.3,-3.1,6.3,2.1
COc1ccc(NC(=S)N(CCc2c(C)[nH]c3ccccc23)Cc2ccco2)cc1,2,2%,0.73,0.6,-0.5,6.7,2.7
O=S(=O)(c1ccccc1)N1CCN=C1SCc1c(F)cccc1Cl,1,4%,0.69,-0.2,-3.2,2.1,-0.2
c1ccc(C2=Nn3c(nnc3-c3cccnc3)SC2)cc1,-15,-1%,0.67,0.4,1.9,1.5,-0.9
Cc1ccc(C(=O)Nc2ccc(N3CCN(C(=O)c4ccco4)CC3)cc2)c(Cl)c1,-1,·,0.67,0.0,-8.3,-0.2,5.3
N#Cc1ccc(-c2ccc(OCC(O)CN3CCCCC3)cc2)cc1 (stereo unspecified),12,1%,0.66,-0.9,7.7,-8.5,0.9
COc1cc(C(=O)Oc2ccc(/C=N/NC(=O)c3ccncc3)cc2)cc(OC)c1OC,14,0%,·,-3.7,0.5,·,0.3
CC[C@]1(C(=O)OC)[C@H]2C(=O)N(C)C(=O)[C@H]2[C@H]2CN(C)C(=NCc3ccccc3)N21,-6,-6%,0.68,·,·,1.7,-1.8
COc1cccc(N2CC34C=CC(O3)C(C(=O)O)C4C2=O)c1 (stereo unspecified),-4,-1%,0.72,0.0,-8.4,0.3,-6.0
O=C(O)CN1C2=NCCCN2c2ccccc21,-23,-5%,0.67,-0.6,5.7,-2.0,-0.7
Cn1c(=O)[nH]c(=O)c2c1nc(CN1CCN(c3ccccc3F)CC1)n2CCCc1ccccc1,-5,-2%&0%,0.66,1.5,-3.0,2.7,-1.3
C[C@@H]1CN([C@@H](C)CO)C(=O)Cc2cc(NC(=O)Nc3cccc4ccccc34)ccc2O[C@@H]1CN(C)S(C)(=O)=O,7,·,·,0.5,-5.7,4.9,-3.8
O=C(CN1CCOCC1)Nc1ccccc1-c1ccccc1,2,-2%,0.71,-0.5,3.0,4.6,3.3
CCOC(=O)N1CCN(c2c(NC3CCN(Cc4ccccc4)CC3)c(=O)c2=O)CC1,-11,0%,0.74,0.7,3.8,2.9,1.0
Cc1cc(C)cc(NC(=O)Nc2cc(-c3ccccc3)nn2C)c1,3,-3%,0.6,0.1,0.5,3.7,5.5
COc1cccc(COc2ccc3c(C)c(Cc4ccccc4)c(=O)oc3c2)c1,2,4%,0.77,-1.9,-2.4,-50,0.4
COc1cc(/C=C2/C(=O)N(C)C(=S)N2C)ccc1OCc1cccc(F)c1,20,-2%,0.72,-0.6,-4.0,3.4,36*
C[n+]1ccccc1C1CCCC/C1=N\Nc1ccc([N+](=O)[O-])cc1[N+](=O)[O-] (stereo unspecified),1,·,·,1.1,2.0,·,-3.3
CCS(=O)(=O)c1nc(S(=O)(=O)c2ccc(Cl)cc2)c(NCCOC)s1,-21,·,0.67,1.9,-7.4,5.1,0.6
COc1ccccc1NC(=O)CCc1c(C)[nH]c(=O)c(C#N)c1C,-13,2%,0.78,1.1,5.6,5.6,-2.1

Further results.
mol,B2AR ag,Vif A3G,E coli growth,Bfl-1 A1 inh,LANA-H2B inh,UCH37 inh,HNF4A DNA FP
CCCC(c1nnnn1CCc1ccccc1)N1CCC(C(N)=O)CC1 (stereo unspecified),4,·,0.7,0.3,1.9,0.7,-2.6
CCOCCOC(=O)c1[nH]c2c(c1C)C(=O)CC(c1ccc(N(C)C)cc1)C2 (stereo unspecified),4,7%,0.75,-0.2,2.6,3.1,2.9
Cc1nccn1Cc1ccccc1,-1,·,0.7,0.4,-2.9,0.7,-2.7
COc1ccccc1OCCNC(=O)CCS(=O)(=O)c1ccccc1,-2,·,0.73,-0.6,-1.7,1.8,-2.7
COC(=O)c1[nH]c2cc(OC)ccc2c1NC(=O)c1ccc2c(c1)OCO2,14,-4%,0.72,0.1,3.2,-5.8,-1.5
COc1cc(/C=C/C(=O)NC(C)CCc2ccccc2)cc(OC)c1OC (stereo unspecified),0,·,0.69,0.7,-1.3,-0.8,-2.6
COc1ccc(/C=N/NC(=O)c2cccc([N+](=O)[O-])c2)cc1OC(=O)c1ccc(C)cc1,-3,-1%,·,-0.4,-3.9,·,-2.6
O=S(=O)(c1ccccc1F)N1CCN(Cc2cc3c(cc2O)OCO3)CC1,-9,-11%,0.71,2.8,4.2,0.2,1.4
